Bioassay records: PubChem, National Center for Advancing Translational Sciences (NCATS)
HPGD inh: qHTS Assay for Inhibitors of HPGD (15-Hydroxyprostaglandin Dehydrogenase) | 15-hydroxyprostaglandin dehydrogenase [NAD(+)] (Homo sapiens), P15428 | Potency, µM, without a hit: top-dose activity change, negative = inhibition, hits mostly inhibitors | actives 4.3% (n = 150,000) | purified HPGD, NADH fluorescence kinetic, PGE2 substrate; active = well fitted inhibition curve with a large enough effect (not every such curve was filed as active); inconclusive = small, poorly fitted or top-dose-only effect, or another doubt; inactive = no such curve, though single readings can be large or run the other way;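 note: top concentration of the series not given in the record; plate controls included wells without enzyme; inactives centre near -10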
Target sequence (P15428 whole entry, looked up): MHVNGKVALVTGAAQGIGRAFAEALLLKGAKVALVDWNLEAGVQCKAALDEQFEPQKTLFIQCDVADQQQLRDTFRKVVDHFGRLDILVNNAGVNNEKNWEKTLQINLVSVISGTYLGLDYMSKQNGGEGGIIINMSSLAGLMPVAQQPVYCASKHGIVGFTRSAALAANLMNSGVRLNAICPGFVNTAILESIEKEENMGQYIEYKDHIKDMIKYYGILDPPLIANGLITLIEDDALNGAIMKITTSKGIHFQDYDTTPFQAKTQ
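20 nM HPGD preincubated 15 min at room temperature with compound in 50 mM Tris-HCl pH 8, 0.01% Tween 20. Started with 1 mM NAD+ and 30 uM prostaglandin E2; NADH fluorescence (360/450 nm) read 5 times over 30-s intervals, last minus first.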
* marks the source's active call; other numbers are inactive results; ? = inconclusive; & = joins results of further samples. % is set by controls: 0 for no effect and ±100 for the full control effect; potency is the fitted concentration of half-maximal effect. These rows are one share of the data. The share of hits here may be higher or lower than overall.

SMILES	HPGD inh
Cc1c(N(C)C(=O)C2CCCN2S(=O)(=O)c2ccccc2)c(=O)n(-c2ccccc2)n1C (stereo not drawn)	-10%
CC(NC1CCCC1)C(=O)Nc1ccccc1-c1ccccc1 (stereo not drawn)	-1%
CCCCn1c(SCC(=O)N(CC)C2CCS(=O)(=O)C2)nnc1C(CC)N(C)C (stereo not drawn)	0%
CCc1nc(NCCN)c(C#N)c2c1CSC(C)(C)C2	?
Cc1ccc(Nc2nc3ccccc3[nH]2)nc1	-9%
CN1CCCN(C(=O)c2ccc(Cl)c(S(=O)(=O)N(C)c3ccccc3)c2)CC1	0%
CCc1ccc(S(=O)(=O)Nc2ccc(-c3nc4cccnc4s3)cc2)s1	?
CC1(C)CC(=O)c2sc(NC(=O)CN3CCOCC3)nc2C1	-6%
CC1CCC2(CC1)NC(=O)N(CC(=O)Nc1nc(-c3ccc(F)cc3)cs1)C2=O (stereo not drawn)	-13%
O=[N+]([O-])c1ccc(N2CCOCC2)cc1NCc1ccccc1	-15%
Cc1csc(NC(=O)c2cnc3ccccn3c2=O)n1	?
COc1ccc(CCN2CC(C(=O)O)CC2=O)cc1 (stereo not drawn)	-9%
CCCc1cc(=O)n2[nH]c(-c3ccc(OC)cc3)nc2n1	-20%
O=C(c1ccco1)N1CCN(c2nc3ccsc3c(=O)s2)CC1	?
CN(C)CCCNC(=O)/C(=N\O)c1ccccc1	-1%

Random excerpt: 6 entries already listed.
SMILES	HPGD inh
O=[N+]([O-])c1ccc(N2CCOCC2)cc1NCc1ccccc1	-15%
Cc1ccc(Nc2nc3ccccc3[nH]2)nc1	-9%
Cc1c(N(C)C(=O)C2CCCN2S(=O)(=O)c2ccccc2)c(=O)n(-c2ccccc2)n1C (stereo not drawn)	-10%
CCCCn1c(SCC(=O)N(CC)C2CCS(=O)(=O)C2)nnc1C(CC)N(C)C (stereo not drawn)	0%
CCc1nc(NCCN)c(C#N)c2c1CSC(C)(C)C2	?
CCCc1cc(=O)n2[nH]c(-c3ccc(OC)cc3)nc2n1	-20%

(listing goes on)
SMILES	HPGD inh
Cc1cccc(NC(=O)C2CCCN(S(=O)(=O)c3cccc4nsnc34)C2)c1 (stereo not drawn)	-14%
CCOc1c(CNCCN2CCOCC2)cccc1OC	-3%
COc1cc(C(=O)N2CCN(C(=O)C3CC3)CC2)cc(OC)c1OC	-8%
O=C(/C=C/c1ccc(Cl)cc1Cl)Nc1ccc(CN2CCOCC2)cc1	-8%
Cn1c(=O)[nH]c(=O)c2c1nc(NCc1ccco1)n2CCCc1ccccc1	2%
O=C(Nc1ccc2oc(=O)ccc2c1)c1cc2ccccc2o1	?
CN(C)S(=O)(=O)c1cccc(NC(=O)COC(=O)CCC(=O)c2ccc(F)cc2)c1	-5%
Fc1ccc(NCc2ccccc2F)cc1Cl	-11%
COc1cc(CNc2ccc(N3CCCC3)cc2)ccc1OCc1ccccc1	-15%
C=CCC1CCCC(=O)N2CCCC12 (stereo not drawn)	-9%
Cc1ccc(C)c(/C(O)=C2\C(=O)C(=O)N(CCCN3CCOCC3)C2c2cccnc2)c1 (stereo not drawn)	-16%
COc1ccc(Oc2nccc(-c3ccc(F)cc3)c2C#N)cc1	-29%
CCC(Sc1nccn1C)C(=O)Nc1nnc(C)s1 (stereo not drawn)	-8%
CCc1ccccc1NC(=O)N[C@@H](C)C(=O)O	0%
CCCCOc1ccc2c(C)cc(=O)oc2c1OCCCC	-24%

Two neighbouring records from above, for reference:
SMILES	HPGD inh
COc1cc(C(=O)N2CCN(C(=O)C3CC3)CC2)cc(OC)c1OC	-8%
O=C(/C=C/c1ccc(Cl)cc1Cl)Nc1ccc(CN2CCOCC2)cc1	-8%

(continued)
SMILES	HPGD inh
O=C(c1ccccc1)N1CCN(C(=O)c2ccccc2)C1c1ccccc1	-4%
CCN(CC)C(=O)CSc1nnc(-c2ccc(F)cc2)n1N	-5%
CCOC(=O)C1CCN(Cc2ccc(F)cc2F)CC1	-2%
COc1ccc(-c2noc(CSc3nc(-c4ccccc4)cc(=O)[nH]3)n2)cc1	-14%
Cc1nc2ccccc2n1/N=C/c1cccnc1	-15%
CC1(c2ccco2)NC(=O)NC1=O (stereo not drawn)	-1%
COc1ccc(N2C(=O)CN=C2Nc2cccc(C)c2C)cc1OC	2%
O=C(/C=C\c1ccc(-c2ccccc2)o1)c1ccccc1	?
COc1cc(C(C[N+](=O)[O-])c2c(C)[nH]c3ccccc23)cc(OC)c1OC (stereo not drawn)	-10%
Cc1ccc(C(=O)Oc2ccccc2C(=O)N2CCOCC2)cc1	-13%
O=C1CCCC1C(O)c1ccc2ccccc2c1 (stereo not drawn)	-2%
C/C(=C1/SC(N2CCCC2)=NC1=O)c1ccc(Br)cc1	-3%
Cc1cccc(C)c1-n1c(C)cc(/C=N/NC(=O)c2ccncc2)c1C	-10%
COc1ccc(-c2nc(C#N)c(NCCCN(C)C)o2)cc1OC	?
N#CCSc1n[nH]c2nc3c(c(=O)n12)C1(CCCC1)Cc1ccccc1-3	?
CCOC(=O)C1=C(C)Nc2nnnn2C1c1c[nH]c2ccccc12 (stereo not drawn)	-19%
COc1ccc(C2C(C(=O)OC(C)C)=C(C)N=c3s/c(=C\c4cccs4)c(=O)n32)cc1 (stereo not drawn)	-21%
CCCOC(=O)c1ccc(NC(=O)CCC(=O)OCC)cc1	-8%
O=C1[C@@H]2[C@H](C(=O)N1n1cnnc1)[C@H]1C=C[C@@H]2C1	-8%
Cc1cc(C)nc(NS(=O)(=O)c2ccc(NC(=S)NC(=O)C(C)(C)C)cc2)n1	1%
Cc1c(N(C)CS(=O)(=O)O)c(=O)n(-c2ccccc2)n1C	-5%&-1%
Cc1nn(-c2ccccc2)c(N)c1C1(O)C(=O)N(C(C)C)c2ccccc21 (stereo not drawn)	-2%
O=S(=O)(c1ccccc1)N1CCN=C1SCc1cccc(Cl)c1	-3%
O=C(COC(=O)C(Cc1ccccc1)NC(=O)c1ccco1)NC1CC1 (stereo not drawn)	1%
O=C(Nc1cccc(Cl)c1)Nc1ccc2c(c1)C(=O)OC2	-4%
O=C(Cc1nn[nH]n1)NCc1ccccc1Cl	-6%
O=C(NCc1ccncc1)c1ccc(Cl)c(S(=O)(=O)N2CCOCC2)c1	-7%
CNC(=O)Cn1nc(-c2ccc(C)c(S(=O)(=O)N(C)C)c2)c2ccccc2c1=O	-26%
COc1ccc2cc(C(N)=O)/c(=N/NC(=O)c3ccco3)oc2c1	-23%
O=C(COC(=O)CC(NC(=O)c1ccccc1Cl)c1ccccc1)Nc1cccc(F)c1 (stereo not drawn)	-13%

Sorted by molar mass (lowest first): part of the list above.
SMILES	HPGD inh
O=C(Nc1cccc(Cl)c1)Nc1ccc2c(c1)C(=O)OC2	-4%
COc1ccc2cc(C(N)=O)/c(=N/NC(=O)c3ccco3)oc2c1	-23%
CNC(=O)Cn1nc(-c2ccc(C)c(S(=O)(=O)N(C)C)c2)c2ccccc2c1=O	-26%
O=C(COC(=O)CC(NC(=O)c1ccccc1Cl)c1ccccc1)Nc1cccc(F)c1 (stereo not drawn)	-13%

New compounds follow.
SMILES	HPGD inh
COc1cc(OC)c(/C=N/NC(=O)c2ccc([N+](=O)[O-])cc2)cc1Br	3%
CC1NC(=O)NC1CCCCC(=O)O (stereo not drawn)	-6%
COC(=O)N/N=C(\C)c1ccccc1Br	-8%
O=C(CCCOc1ccc(Cl)cc1Cl)N/N=C/c1ccc(Cl)cc1	-5%
CC1CCC(C(=O)NC(C(=O)N2CCN(c3ccccn3)CC2)C(C)C)CC1 (stereo not drawn)	-24%
Cc1noc(C)c1C(=O)N1CCC2(CC1)CCN(C(c1ccccc1)c1ccccc1)CC2	-26%
COC(=O)C1(C(=O)OC)C/C=C\Cc2ccccc2[C@@H]1C[N+](=O)[O-]	-2%&-6%&-6%
O=C(COC(=O)COc1ccc2ccccc2c1)NC1CCCc2ccccc21 (stereo not drawn)	-9%
c1ccc(-c2nn3c(-c4ccco4)nnc3s2)nc1	-22%
O=C(N/N=C/C=C/c1ccccc1)c1cccc(Br)c1	-9%
CC1(C)CCC(=O)N(c2ccccc2)C1=O	1%
Cc1ccc(S(=O)(=O)N2CCCC2C(=O)NCc2ccco2)cc1 (stereo not drawn)	-14%
CCN1C(=O)/C(=C\N2CCN(C)CC2)SC1=S	1%
CCCCC/C=C\C\C=C/C=C/C=C/[C@@H](SCC(N)C(=O)NCC(=O)O)[C@@H](O)CCCC(=O)O (stereo partly drawn)	-4%
CCOC(=O)c1cnn(Cc2ccccc2Cl)c1N	-16%
CCOc1ccccc1C(=O)Nc1cc(C(=O)NCCc2ccccc2)ccc1Cl	-6%
COC(=O)CN(C(=O)CSc1nnc(-c2cccc(OC)c2)o1)c1ccc(OC)cc1	-20%
CN1CCN(CCc2ccc(Cl)c(Cl)c2)CC1	1%
O=C(Nc1nc2ccccc2n1CCN1CCOCC1)c1cn(-c2ccccc2)nc1-c1ccccc1	?
CC(=O)c1ccc(-c2nc3ccccc3n2C)o1	?
Cc1ccc(-n2nnnc2SCC(=O)c2ccc3c(c2)NC(=O)CO3)c(C)c1	-11%
O=c1c2[nH]c3ccc(Cl)cc3c2ncn1Cc1ccccn1	-1%
Nc1nc(C2C(=O)CCCC2=O)cs1	-6%
Cc1ccc(N)c([N+](=O)[O-])c1	-5%
COCCn1c(-c2ccccc2)nc2oc3ccccc3c(=O)c2c1=O	-14%
CC(C)C[C@@H]1NC(=O)[C@H](C(C)C)NC(=O)c2cc([N+](=O)[O-])cc(I)c2NCC[C@@H](C(N)=O)NC1=O	-14%
COc1ncc2nc(C)c(=O)n(C)c2n1	-17%
CCCCC[C@H](O)/C=C/C1=C(CCCCCCC(=O)O)C(=O)CC1	-8%&-5%
Cc1ccc(-c2ccc(SCC(=O)N3CCN(c4ccccc4)CC3)nn2)cc1	-6%
CCN1CCN(C(=O)NC(C(=O)NC2C(=O)N3C(C(=O)O)=C(CSc4nnnn4C)CSC23)c2ccc(O)cc2)C(=O)C1=O (stereo not drawn)	-16%&-2%
CO[C@@H]1C[C@H](O[C@H]2[C@@H](C)[C@H](O[C@@H]3O[C@@H](C)C[C@@H](N(C)C)[C@@H]3OC(C)=O)[C@H](C)C[C@]3(CO3)C(=O)[C@H](C)[C@H](OC(C)=O)[C@H](C)[C@H](C)OC(=O)[C@@H]2C)O[C@H](C)[C@@H]1OC(C)=O	-5%
Cc1ccnc(NC(=S)NC(=O)/C=C/c2ccco2)c1	-14%
C=CCn1c(SCc2ccc(Cl)cc2)nc2c1c(=O)[nH]c(=O)n2C	-14%
COc1ccccc1N1CCN(C(=O)CSc2nc3ccccc3o2)CC1	-3%
CS(=O)(=O)N(CC(=O)Nc1ccccc1C(=O)NCc1ccco1)c1ccc2c(c1)OCCO2	-14%
COc1cccc(NC(=S)NCc2cccnc2)c1	-6%
COc1ccc(N(CC(=O)Nc2ccc(C)c(C)c2)S(=O)(=O)c2c(C)n[nH]c2C)cc1	-7%
CCC(=O)C1=C(N2CCCC2)CC(C)(C)CC1=O	-7%
O=C(COC(=O)c1cc(-c2ccccc2Cl)nc2ccccc12)Nc1ncc(C(F)(F)F)cc1Cl	-19%
Cc1ccc(-n2ncc3c(=O)[nH]cnc32)c(C)c1	-30%
COC(=O)c1cc2ccsc2n1CC(=O)Nc1ccc(N(C)C)cc1	-11%
O=C(Oc1ccc2c(=O)c(Oc3ccc4ccccc4c3)coc2c1)c1cncc(Br)c1	-25%
COc1ccc(C(=O)CSc2nc3cccnc3n2C)cc1	-13%
O=C(COC(=O)Cc1ccsc1)NC1CCCCCC1	-9%
O=C(NCc1ccc(Cl)cc1)C(=O)NCC1OCCN1S(=O)(=O)c1ccc2c(c1)OCCO2 (stereo not drawn)	-3%
COc1cc2oc(=O)cc(-c3ccc(-c4ccc(F)c(Cl)c4)cc3)c2c(OC)c1OC	-5%
CCCSC1=C(C#N)C(c2cccnc2)C(C(=O)OCC)=C(c2ccccc2)N1 (stereo not drawn)	-9%
CCN1C(=O)CC(N2CCC(C(=O)N3CCOCC3)CC2)C1=O (stereo not drawn)	-12%
COC(=O)c1ccc(NC(=O)Nc2ccc(F)c(Cl)c2)cc1	-7%
CC(C)N(Cc1nc(-c2ccc(Cl)cc2)no1)C(=O)/C=C/c1ccccc1	-1%
COc1ccc2c(c1)[nH]c1c(=O)n(CCC3=CCCCC3)cnc12	-17%
Cc1ccc2cc3cc(C(=O)N(CC(=O)NC4CCCC4)c4cccc(C)c4C)sc3nc2c1	?
COc1cccc(C(=O)Nc2c3c(nc4c2CCC4)CCCC3)c1	-2%
CC(C)=CCCC1(C)C=Cc2c(O)c3c(c(CC=C(C)C)c2O1)OC12C(=CCCC1C(C)(C)O[C@@]2(C/C=C(\C)C(=O)O)C(=O)O)C3=O (stereo partly drawn)	-4%
COc1ccccc1OCCn1cc(/C=N/n2cnnc2)c2ccccc21	-3%
CCOC(=O)c1nnn(-c2nonc2NC(C)=O)c1C	-5%
O=C(CSc1cccc2cccnc12)OCC(=O)c1ccc(Br)cc1	18%
COc1ccc(-c2c(C)cc3oc(=O)cc(-c4ccccc4)c3c2C)cc1	-27%
COC(=O)C1(Cc2ccccc2)C=C2C(=C(C(C)C)C(=O)C2C)CN1 (stereo not drawn)	?
Cc1noc(C)c1COC(=O)COc1ccc2c(C)cc(=O)oc2c1	?
CCCOC(=O)CCc1n[nH]c(=O)[nH]c1=O	-7%
